# From PubChem BioAssay
# N370S GC mod: inhibits or activates N370S mutant glucocerebrosidase. N370S GC spleen homogenate, 4MU-glucoside fluorescence. Potency, µM (highest dose often 59.4 µM), for inactives: at the highest dose activity change, negative = inhibition, hits mostly inhibitors. actives 0.092% (n = 330,000);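 also: 0% = full enzyme activity and -100% = no enzyme basal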
# DT40 TDP1 CPT: growth inhibition of DT40 Tdp1-/-;hTDP1 cells with camptothecin (screen for TDP1 inhibitors); chicken DT40 Tdp1-/-;hTDP1 cells + 20 nM CPT, ATP luminescence, 48 h; Potency, µM (series often up to 46.2 µM), for the others: at the highest dose activity change, negative = growth inhibition, most hits filed as inhibitors; actives 12% (n = 420,000); AID 686979; also: nearly all actives have a fitted effect of over 55% in size
#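 Chicken DT40 Tdp1-/- cells complemented with human TDP1, 400 cells/well, exposed to compounds plus 20 nM camptothecin for at least 48 h at 37 C; viability read as ATP content by CellTiter-Glo luminescence.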
# The depositor's hits bear a star; ? = inconclusive; / = no result given; & = joins results of further samples. Calls follow the shape of the dose curve; as a rule, active = well fitted curve in the direction sought with a large enough effect; inconclusive = small, poorly fitted or top-dose-only effect, or another doubt; inactive = no such curve, though single readings can be large; an effect the other way counts as inactive or inconclusive. Unless noted, % is scaled to controls: 0 for no effect and ±100 for the full control effect; potency is read from the fitted curve at half-maximal effect.
SMILES	N370S GC mod	DT40 TDP1 CPT
O=C(Nc1cccc(Cl)c1)c1cc(S(=O)(=O)N2CCOCC2)cs1	-29.0%	?
CCOc1ccc2c(CC)cc(=O)oc2c1OCC	-1.9%	10.4%
COCCCNC(=O)COC(=O)c1ccc(-c2nc3ccccc3s2)s1	11.1%	-14.3%
Cc1ccccc1C(=O)NCc1nnc(SCC(=O)N2c3ccccc3Sc3ccccc32)n1C	9.1%	?
O=C(COC(=O)C1CC(O)CN1S(=O)(=O)c1ccc(Cl)cc1)c1ccccc1Cl (stereo not given)	-0.6%	-0.1%
CCCC1=C(C(=O)OCC)C(c2sccc2C)n2ncnc2N1 (stereo not given)	0.4%	-16.9%
CC1CCN(C(=O)CN2C(=O)NC3(CCCc4ccccc43)C2=O)CC1 (stereo not given)	-7.1%	-8.4%
CCOC(=O)c1c(NC(=O)Nc2ccc(Cl)cc2)sc(C)c1C	6.7%	?
O=C(c1ccnc(Cl)c1)N1CCCC(N2CCN(c3ccccc3F)CC2)C1 (stereo not given)	-4.4%	-0.5%
CCOC(=O)c1oc2ccccc2c1CN1CCN(C)CC1	?	-5.2%
C=CCn1c(=O)c(C(=O)NC(C)c2ccccc2)c(O)c2ccccc21 (stereo not given)	4.4%	?
COc1cc(CNCc2ccccc2Cl)ccc1OCC(=O)NC1CCCCC1	-0.5%	?
NC(=O)C1=C[C@@H](c2ccc(Br)cc2)C[C@@H](OCCCCO)O1	1.6%	-2.6%
COC(=O)c1ccc(CN2CCCC(CCC(=O)NCc3ccc(C)o3)C2)cc1 (stereo not given)	-2.7%	?
COc1ccc(-c2cc(=O)oc3c(C)c(OCc4nn[nH]n4)ccc23)cc1	-4.7%	-5.1%
COc1ccc(C2CC(=O)NC(=O)C2)cc1	-9.9%	7.3%
Cc1cc(F)ccc1NC(=O)c1cc(S(=O)(=O)N2CCc3ccccc32)cn1C	-8.3%	?
Nc1nc(SCC(=O)Nc2c(Br)cc([N+](=O)[O-])cc2Br)n[nH]1	-5.3%	16.0%
COCCN=c1scc(-c2cccs2)n1/N=C(\C)c1ccco1	-19.8%	?
Nc1nnc(-c2cn(-c3ccccc3)nc2-c2ccccc2)o1	2.6%	-20.9%

# In a second layout: entries from further up.
# The line under a structure holds: N370S GC mod | DT40 TDP1 CPT
COc1cc(CNCc2ccccc2Cl)ccc1OCC(=O)NC1CCCCC1
→ -0.5% | ?
Nc1nc(SCC(=O)Nc2c(Br)cc([N+](=O)[O-])cc2Br)n[nH]1
→ -5.3% | 16.0%
Cc1cc(F)ccc1NC(=O)c1cc(S(=O)(=O)N2CCc3ccccc32)cn1C
→ -8.3% | ?
COc1ccc(C2CC(=O)NC(=O)C2)cc1
→ -9.9% | 7.3%

# Going on with the list:
SMILES	N370S GC mod	DT40 TDP1 CPT
COc1ccc(C2Nc3ccccc3C(=O)N2C2CCCCC2)cc1 (stereo not given)	10.4%	?
Cc1ccc2[nH]c(=O)c(CN(CC3COCCO3)C(=O)Nc3ccccc3F)cc2c1 (stereo not given)	3.9%	?
CC(=O)Nc1ccc(NC(=O)C(C)OC(=O)CN(C)S(=O)(=O)c2ccc(Cl)cc2)cc1 (stereo not given)	1.0%	-17.0%
COC(=O)Nc1sc2nc(C)cc(C)c2c1-n1cccc1	11.3%	-27.0%
c1c(C2CCCCC2)n[nH]c1CN1CCCCC1	-3.1%	-0.4%
O=C(CN1C(=O)C2CCCCC2C1=O)N1CCN(c2ncccn2)CC1 (stereo not given)	-1.8%	7.1%
CC(C(=O)Nc1ccc2c(c1)OCCO2)N(c1ccccc1)S(C)(=O)=O (stereo not given)	-12.3%	-9.8%
CCCC(C(=O)NC1CCCC1)N(CC1CCCO1)C(=O)CNS(=O)(=O)c1ccc(F)cc1 (stereo not given)	-5.0%	1.6%
CCC(C)c1ccccc1NC(=O)C(C)NCCN(C)C (stereo not given)	15.0%	8.5%
CC(C)(C)C(O)C(Cc1ccccc1Cl)n1cncn1 (stereo not given)	-9.6%	-27.9%
O=C(CN1CCCCC1)Nc1cccc(Cl)c1Cl	-14.6%	?
[O-]C1=N/[N+](=C/c2ccccc2)CC1	22.7%	9.7%
COc1ccc(OC)c(/C=N\NC(=O)c2c(C)nc3cc(C)ccn23)c1	-8.0%	11.3%
O=C1NC(c2ccccc2)(C(F)(F)F)C(=O)N1Cc1cccnc1 (stereo not given)	-2.3%	-2.0%
CN(Cc1ccccc1)Cc1c(F)cccc1F	-2.6%	-7.5%
CCOC(=O)N1CCN(C2=C(NS(=O)(=O)c3ccccc3)C(=O)c3ccccc3C2=O)CC1	1.0%	13µM*
COc1ccc(OC)c(S(=O)(=O)N2CCC(C(=O)N3CCN(c4ccc(F)cc4)CC3)CC2)c1	-10.9%	?
CCOC(=O)C1CCCN(C(=O)Cn2nc(CC)n3c(cc4sccc43)c2=O)C1 (stereo not given)	9.6%	?
CSCCC(NC(=O)c1ccccc1Cl)C(=O)Nc1cccc(S(=O)(=O)N2CCCC2)c1 (stereo not given)	-8.5%	?
c1ccc(-c2ccccc2OCCOCCN2CCNCC2)cc1	?	-8.9%

# Reprinted at random: 6 records from the list.
SMILES	N370S GC mod	DT40 TDP1 CPT
COC(=O)Nc1sc2nc(C)cc(C)c2c1-n1cccc1	11.3%	-27.0%
Cc1ccccc1C(=O)NCc1nnc(SCC(=O)N2c3ccccc3Sc3ccccc32)n1C	9.1%	?
O=C(CN1C(=O)C2CCCCC2C1=O)N1CCN(c2ncccn2)CC1 (stereo not given)	-1.8%	7.1%
Cc1cc(F)ccc1NC(=O)c1cc(S(=O)(=O)N2CCc3ccccc32)cn1C	-8.3%	?
CC1CCN(C(=O)CN2C(=O)NC3(CCCc4ccccc43)C2=O)CC1 (stereo not given)	-7.1%	-8.4%
O=C(CN1CCCCC1)Nc1cccc(Cl)c1Cl	-14.6%	?

# (cont.)
SMILES	N370S GC mod	DT40 TDP1 CPT
Cc1ccc(S(=O)(=O)N2CCCCC2CCNC(=O)C(=O)Nc2ccccc2F)cc1 (stereo not given)	3.3%	6.51µM*
Cc1sc2ncnc(Nc3ccccc3)c2c1C	0.7%	?
COc1ccc(CNC(=O)C(C)n2nc(C)c3c(C)n(-c4ccc(C)cc4)nc3c2=O)cc1 (stereo not given)	-3.4%	18.4µM*
CCCn1c(SCC(=O)N2CCc3ccccc32)nnc1-c1ccco1	22.5%	?
CCOC(=O)c1cnc(-n2nc(C)cc2C)nc1Oc1ccccc1F	12.7%	?
CCCNC(=O)c1cc(-c2ccc(OC)cc2)n(CCCOC)c1C	15.0%	-19.6%
Cn1c(C(=O)NCc2cccnc2)cc2sc(Cl)cc21	-7.0%	?
COc1ccc(CNC(=O)c2cnc3scc(C)n3c2=O)cc1	29.8%	0.2%
O=C(CCNC(=O)c1ccco1)Nc1ccc(C(F)(F)F)cc1	-4.4%	7.0%
c1ccc(CNc2ncnc3c2cnn3Cc2ccccc2)cc1	5.0%	13µM*
COc1cccc(CNC(=O)CCC2CCCN(C(=O)c3cccc4c(C)c(C)[nH]c34)C2)c1 (stereo not given)	-8.2%	?
O=C(CSc1cccc[n+]1[O-])Nc1ccc(C(F)(F)F)cc1[N+](=O)[O-]	8.4%	-15.8%
C/C(=N/OC(=O)C1CC12CCC2)c1ccc(Br)cc1 (stereo not given)	6.2%	-2.8%
COc1ccc(S(=O)(=O)Nc2ccc(O)c(Sc3ncn[nH]3)c2)cc1	5.2%	?
Cc1nc2ccc(NC(=O)c3cccs3)cc2s1	2.6%	-22.9%
O=C(CN1C(=O)c2ccccc2C1=O)NCC1CCCO1 (stereo not given)	-1.2%	-2.5%
Cc1cc(NC(=O)CSc2nc(-c3ccc(F)cc3)cs2)no1	6.3%	-27.0%
COc1ccc2nc(NC(=O)C34CC5CC(CC(NC(C)=O)(C5)C3)C4)sc2c1	3.5%	-26.8%
CC(C)CC1NC(=O)N(Cc2cc(=O)n3ccsc3n2)C1=O (stereo not given)	-7.7%	-0.7%
N#CCSc1nnc(-c2ccccc2O)n1Cc1ccccc1	-25.7%	10.3%
N#Cc1c(NC(=O)c2cc(-n3cnnc3)ccc2Cl)sc2c1CCCC2	-10.6%	20.6µM*
COC(=O)N/N=C\c1ccc(OC/C=C/c2ccccc2)c(OC)c1	-3.1%	-21.4%
Cc1ccc(-c2c(C(=O)NC(C)C)oc(=O)c3ccccc23)cc1	0.6%	-17.5%
Cc1nc2scc(C)n2c(=O)c1S(=O)(=O)NCC1CCN(Cc2ccc(F)cc2)CC1	-1.4%	2.4%
O=C(O)c1ccc(C(=O)c2ccc3c(c2)C(=O)N(Cc2ccco2)C3=O)cc1	1.4%	1.4%
O=c1oc(-c2cccc(S(=O)(=O)N3CCOCC3)c2)nc2ccccc12	-8.1%	?
COc1ccccc1C/C(N)=N/OC(=O)COc1ccc(C)cc1C	/	-17.3%
O=C(c1ccc2nc[nH]c2c1)N1CCN(c2ncc(C(F)(F)F)cc2Cl)CC1	-19.5%	14.6µM*
CCOc1ccc(C(=O)Nc2cccc(C(=O)O)c2C)cc1Cl	16.7%	-10.3%
Cc1ccccc1S(=O)Cc1ccc(C(=O)NCCN2CCOCC2)o1 (stereo not given)	6.8%	13.6%
CCC(=O)Oc1ccc2c(C)cc(=O)oc2c1C(=O)CC	7.1%	8.6%
CCN(C[C@H]1N[C@@](Cc2ccccc2)(C(=O)OC)[C@H]2C(=O)N(C)C(=O)[C@@H]12)C(=O)Nc1ccc(F)cc1	/	-16.1%
COc1ccc(CS(=O)c2nc(C)cc(C)c2S(C)(=O)=O)cc1 (stereo not given)	9.1%	-1.9%
O=C(NC1CCN(Cc2ccccc2)CC1)C1CCN(c2nnc(-n3cccc3)s2)CC1	-1.4%	?
O=C(COC(=O)Cc1ccc(Cl)cc1Cl)NCCC1=CCCCC1	-3.5%	10.9%
O=[N+]([O-])c1cccc(S(=O)(=O)NCC2CCCO2)c1 (stereo not given)	-5.7%	-12.9%
CCN1C(=O)[C@@H]2[C@H](C1=O)[C@@H]1C(=O)Nc3ccccc3C(=O)N1[C@@H]2c1cccc(C)c1	-4.2%	0.5%
Cc1ccc(-c2cc(C(=O)N3CCc4ccccc4C3)no2)cc1	20.7%	-9.1%
CNS(=O)(=O)c1cccc(C(=O)OCC(=O)Nc2ccc(Cl)cn2)c1	-4.6%	-3.5%
Cc1ccc(/C=C/C(=O)OCC(=O)NC(C)c2ccccc2)o1 (stereo not given)	/	6.9%
CCN(CC)CCNC(=O)COc1ccc(OC)cc1	-0.6%	18.1%&-0.3%&-1.5%
COc1ccccc1-c1nc2n(n1)C(c1ccc(Cl)cc1)C(C(N)=O)=C(C)N2 (stereo not given)	-2.5%	-14.1%
N#CCC(=O)N1CCN(C=O)CC1	-1.7%	0.5%
CS(=O)(=O)c1ccc(-c2cccc(NC(=O)COc3ccc(Cl)cc3)c2)nn1	-1.4%	-1.0%
CC(NC(=O)Nc1cccc([N+](=O)[O-])c1)(C(F)(F)F)C(F)(F)F	6.0%	3.66µM*
Cc1ccccc1C(=O)Oc1ccc(-c2csnn2)cc1	18.1%	6.0%
CCCCC(=O)NC(Nc1nc(C2CC2)cs1)(C(=O)OCC)C(F)(F)F (stereo not given)	2.3%	?
CCC(=O)NC(=S)Nc1ccc(NC(=O)COc2ccc(Cl)cc2Cl)cc1	-0.9%	16.4µM*
COc1ccc(CNC(=O)C(C)OC(=O)CO/N=C(\C)c2ccc3c(c2)OCO3)cc1 (stereo not given)	-13.9%	-6.7%
Cc1ccc(C)c(Cn2nnc3c(=O)[nH]c(C4CCCN(S(=O)(=O)Cc5ccccc5)C4)nc32)c1 (stereo not given)	-1.0%	?

# Continued:
SMILES	N370S GC mod	DT40 TDP1 CPT
COc1ccc(OC)c(NC(=O)COC(=O)/C=C/c2c(C)nn(C3CCS(=O)(=O)C3)c2Cl)c1 (stereo not given)	?	?
O=S(=O)(c1ccccc1)c1nc(-c2cccs2)oc1NCCCn1ccnc1	-2.4%	-14.0%
O=C(NC1CCCCC1)NC1CC2CCC(C1)N2C(=S)NCc1ccco1 (stereo not given)	0.3%	-4.6%
COc1ccccc1-n1cnnc1SC(C)C(=O)Nc1ccc(NC(C)=O)cc1 (stereo not given)	-3.0%	3.1%
CCc1cc(=O)oc2cc(C)cc(OCC(=O)NC3CCN(Cc4ccccc4)CC3)c12	-2.2%	-49.9%
Cc1cc(OCCCCNC(C)C)cc(C(C)C)c1	-22.9%	?
CC(C)N(C)CCOC(=O)C1COc2ccccc2O1 (stereo not given)	-7.8%	-0.6%
COc1ccc(C2/C(=C(\O)c3ccc(OC)c(Cl)c3)C(=O)C(=O)N2CCN(C)C)cc1 (stereo not given)	-1.3%	9.5%
Nc1cccc(Nc2ccccc2)c1	-11.6%	0.5%
CCOC(=O)N1CCN(C(=O)Cc2ccc(C)cc2)CC1	2.5%	-13.7%
COc1cccc(NC(=O)C2CCCN(c3ncnc4c3nc3n4CCCCC3)C2)c1 (stereo not given)	-3.1%	20.6µM*
Cc1ccc(C(C)NC(=O)/C(C#N)=C\c2c(C)[nH]c3ccccc23)cc1 (stereo not given)	16.4%	?

# A portion of the library; most or all hits stand in other tables.
